Screens (PubChem BioAssay)
UUG fidelity = alters start codon recognition fidelity in yeast; AID 602363; S. cerevisiae UUG-firefly luciferase reporter, luminescence/redox ratio; activity score, % at 18.7 µM; hit rate 0.13% among 350,000;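 active = replicate mean at a twofold rise or more, about +100% in these data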;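 note: firefly luciferase made from a UUG start codon reports start codon fidelity; reporter light over untreated wells divided by growth signal over untreated wells; some hits fall short of that in this replicate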
HIV Env fusion = blocks HIV Env-driven cell-cell fusion | inhibition, % at 12.3 µM | HeLa-JRFL Env/CEM21 cell fusion, luciferase | AID 651610 | hit rate 1.1% among 360,000;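 active = mean replicate inhibition score of at least 50 and every replicate individually at or above 50; inconclusive = only one of the two criteria met; inactive = mean below 50 and not all replicates reaching 50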;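 note: 0% = plate neutral controls and 100% = maraviroc near 300 nM; one replicate is shown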
The depositor's hits bear a star; ? = inconclusive; & = joins results of further samples; [ ] = another dose, or the depositor's remark. The list is partial; rates above refer to the full screens.

SMILES	UUG fidelity	HIV Env fusion
O=C(Nc1ccccc1F)N[C@@H]1CC[C@H](CCNS(=O)(=O)c2ccc(F)cc2)O[C@H]1CO	8	-12[16.7 µM]
C[C@@H]1CN([C@@H](C)CO)C(=O)c2cccc(NC(=O)c3ccc(-c4nccs4)cc3)c2O[C@H]1CN(C)S(=O)(=O)c1ccccc1	13	-131[16.7 µM]
[N-]=[N+]=Nc1ccccc1C[C@@]1(C(=O)N2CCOCC2)N=C(c2ccc(OCCCO)cc2)O[C@@H]1c1ccccc1	-9	-30[16.7 µM]
O=C(C[C@@H]1C[C@@H]2c3cc(NC(=O)Nc4ccccc4)ccc3O[C@@H]2[C@H](CO)O1)NCc1cccnc1	-22	16[16.7 µM]
C[C@H](CO)N1C[C@H](C)[C@@H](CN(C)CC2CCCCC2)Oc2ccc(NS(=O)(=O)c3cccs3)cc2C1=O	7	-20[16.7 µM]
C[C@H](CO)N1C[C@H](C)[C@@H](CN(C)Cc2ccccc2)OCCCC[C@H](C)Oc2ccc(NS(C)(=O)=O)cc2C1=O	11	10[16.7 µM]
C[C@@H]1CN([C@@H](C)CO)C(=O)c2cc(-c3ccccc3)cnc2O[C@H]1CN(C)C(=O)Cc1cccnc1	-10	0[16.7 µM]
CC(C)NC(=O)N[C@@H]1CC[C@H](CCn2cc(-c3ccc(F)cc3)nn2)O[C@@H]1CO	-1	10[16.7 µM]
O=C(C[C@H]1C=C[C@H](NC(=O)Nc2ccccc2F)[C@H](CO)O1)NCc1ccc(-c2ccccc2)cc1	5	4[16.7 µM]
COc1ccc(CN(C)C[C@@H]2OCCCC[C@@H](C)Oc3ccc(NC(=O)Nc4c(C)noc4C)cc3C(=O)N([C@H](C)CO)C[C@H]2C)cc1	-3	0[16.7 µM]
O=C(C[C@@H]1C=C[C@@H](NS(=O)(=O)c2ccc(F)cc2)[C@H](CO)O1)NCCc1ccncc1	-24	1[16.7 µM]
O=C(C[C@H]1C[C@@H]2c3cc(NC(=O)Nc4ccccc4F)ccc3O[C@@H]2[C@H](CO)O1)NCc1ccc(Oc2ccccc2)cc1	-10	-4[16.7 µM]
O=C(C[C@H]1C=C[C@H](NC(=O)C2CC2)[C@H](CO)O1)NCc1ccncc1	-3	13[16.7 µM]
C[C@H]1CN([C@@H](C)CO)S(=O)(=O)c2ccc(C#Cc3ccc(F)cc3)cc2O[C@@H]1CN(C)C(=O)NC1CCCC1	8	43[16.7 µM]
C[C@@H]1CCCCO[C@H](CN(C)Cc2ccc(C(F)(F)F)cc2)[C@H](C)CN([C@@H](C)CO)C(=O)c2cc(NC(=O)NC3CCCCC3)ccc2O1	6	33[16.7 µM]
COc1ccc(NC(=O)N(C)C[C@@H]2Oc3ccc(NC(=O)Nc4ccc(F)cc4)cc3CC(=O)N([C@H](C)CO)C[C@H]2C)cc1	14	13[16.7 µM]
C[C@H]1CN([C@@H](C)CO)C(=O)c2cc(NC(=O)Nc3ccc4c(c3)OCO4)ccc2O[C@H]1CN(C)Cc1ccc(C(=O)Nc2ccccc2N)cc1	21	?
CCCN(C)C[C@@H]1Oc2ncc(-c3cccc(C(=O)N(C)C)c3)cc2C(=O)N([C@H](C)CO)C[C@@H]1C	-6	15[16.7 µM]
COCCNC(=O)C[C@@H]1CC[C@@H](NC(=O)NC2CCCC2)[C@@H](CO)O1	-10	-31[16.7 µM]
C[C@@H]1CN([C@@H](C)CO)C(=O)c2cc(NS(=O)(=O)c3cn(C)cn3)ccc2O[C@@H]1CN(C)S(=O)(=O)c1ccc(Cl)cc1	-10	1[16.7 µM]
O=C(NCC[C@H]1CC[C@@H](NC(=O)c2cnccn2)[C@H](CO)O1)c1ccc2c(c1)OCO2	-8	-18[16.7 µM]
O=C(C[C@H]1C=C[C@H](NS(=O)(=O)c2ccc(F)cc2)[C@H](CO)O1)N1CCC(Cc2ccccc2)CC1	4	5[16.7 µM]
C[C@@H]1CN([C@@H](C)CO)C(=O)Cc2cc(NC(=O)NC3CCCCC3)ccc2O[C@@H]1CN(C)S(=O)(=O)c1ccc(Cl)cc1	-19	60*[16.7 µM]
CN1C(=O)c2cc(NC(=O)c3cccs3)ccc2OC[C@@H]2O[C@@H](CC(=O)NCC(F)(F)F)CC[C@H]21	5	-6[16.7 µM]
COc1ccc(NC(=O)N(C)C[C@@H]2Oc3ccc(NC(=O)C4CC4)cc3C(=O)N([C@@H](C)CO)C[C@@H]2C)cc1	-3	-4[16.7 µM]
COc1ccc(S(=O)(=O)N(C)C[C@@H]2Oc3c(NS(C)(=O)=O)cccc3C(=O)N([C@H](C)CO)C[C@@H]2C)cc1	-1	12[16.7 µM]
C[C@@H]1CN([C@H](C)CO)C(=O)c2cc(-c3cccc(C#N)c3)cnc2O[C@H]1CN(C)C(=O)c1ccccn1	-12	2[16.7 µM]
COc1ccc(S(=O)(=O)Nc2ccc3c(c2)C(=O)N([C@H](C)CO)C[C@H](C)[C@@H](CN(C)S(=O)(=O)c2ccc(C)cc2)OCCCC[C@@H](C)O3)cc1	-3	-23[16.7 µM]
CCCNC(=O)N(C)C[C@@H]1Oc2cc(C#CCC(C)C)ccc2S(=O)(=O)N([C@H](C)CO)C[C@H]1C	11	13[16.7 µM]
C[C@@H]1CN([C@@H](C)CO)C(=O)c2cc(NC(=O)NC3CCCCC3)ccc2O[C@@H](C)CCCCO[C@@H]1CN(C)Cc1ccccc1	11	-15[16.7 µM]
C[C@H](CO)N1C[C@H](C)[C@H](CN(C)Cc2cccnc2)Oc2cc(C#CC3CCCCC3)ccc2S1(=O)=O	2	23[16.7 µM]
C[C@H](CO)N1C[C@H](C)[C@H](CN(C)CC2CCCCC2)OCCCC[C@H](C)Oc2ccc(NC(=O)Nc3ccc4c(c3)OCO4)cc2C1=O	1	-4[16.7 µM]
COc1ccc(S(=O)(=O)N(C)C[C@@H]2OCCCC[C@@H](C)Oc3ccc(NC(=O)CCCCCC(=O)Nc4ccccc4N)cc3C(=O)N([C@H](C)CO)C[C@@H]2C)cc1	-7	0[16.7 µM]
COc1ccc(CNC(=O)C[C@H]2C=C[C@H](NC(=O)c3cccc(F)c3)[C@H](CO)O2)cc1	6	-10[16.7 µM]
COc1ccc(NC(=O)N(C)C[C@H]2OCCCC[C@@H](C)Oc3ccc(NC(=O)Nc4ccc(C(F)(F)F)cc4)cc3C(=O)N([C@@H](C)CO)C[C@H]2C)cc1	-12	23[16.7 µM]
C[C@@H]1CN([C@H](C)CO)S(=O)(=O)c2ccc(-c3cncnc3)cc2O[C@H]1CN(C)C(=O)C1CC1	-3	6[16.7 µM]
O=S(=O)(N[C@H]1CC[C@@H](CCn2cc(C3(O)CCCC3)nn2)O[C@H]1CO)c1ccc(Cl)cc1	-7	4[16.7 µM]
CO[C@H]1CN(C)C(=O)c2ccc(NC(=O)Nc3ccc4c(c3)OCO4)cc2OC[C@@H](C)NC[C@H]1C	-6	-21[16.7 µM]
C=CCN1C(=O)[C@]2(O[C@H](CCO)[C@@H]([Si](C)(C)c3ccc(OC)cc3)[C@@H]2C)c2cc(N3CCCCC3=O)ccc21	17	-39[16.7 µM]
C[C@H](CO)N1C[C@H](C)[C@H](CN(C)Cc2ccncc2)Oc2ccc(NS(=O)(=O)c3ccc(F)cc3)cc2CC1=O	-2	-11[16.7 µM]
C[C@@H](O)C#Cc1ccc2c(c1)O[C@@H](CN(C)Cc1ccccc1)[C@@H](C)CN([C@@H](C)CO)S2(=O)=O	-1	5[16.7 µM]
Cc1noc(C)c1NC(=O)Nc1ccc2c(c1)CC(=O)N([C@H](C)CO)C[C@@H](C)[C@@H](CN(C)S(=O)(=O)c1ccc(F)cc1)O2	-2	-14[16.7 µM]
O=C(NCC[C@@H]1CC[C@H](NS(=O)(=O)c2cccc(F)c2)[C@H](CO)O1)C1CCOCC1	-10	3[16.7 µM]
CNC[C@@H]1Oc2ncc(C#Cc3ccc(OC)c(OC)c3)cc2C(=O)N([C@H](C)CO)C[C@@H]1C	4	5[16.7 µM]
Cc1noc(C)c1S(=O)(=O)N(C)C[C@H]1Oc2ccc(NC(=O)C3CC3)cc2CC(=O)N([C@H](C)CO)C[C@H]1C	-16	-18[16.7 µM]
C[C@@H]1CN([C@@H](C)CO)C(=O)c2cc(NC(=O)C3CCCCC3)ccc2O[C@@H](C)CCCCO[C@@H]1CN(C)S(=O)(=O)c1ccc(Cl)cc1	-10	-3[16.7 µM]
CCC(=O)Nc1ccc2c(c1)OC[C@@H](C)NC[C@@H](C)[C@H](OC)CN(C)C2=O	-6	4[16.7 µM]
CN(C)C(=O)C[C@H]1C[C@@H]2c3cc(NS(C)(=O)=O)ccc3O[C@@H]2[C@@H](CO)O1	-6	-8[16.7 µM]

Shown with two lines to a compound: two of the compounds above
Under each structure – UUG fidelity	HIV Env fusion
> O=C(NCC[C@@H]1CC[C@H](NS(=O)(=O)c2cccc(F)c2)[C@H](CO)O1)C1CCOCC1
 : -10	3[16.7 µM]
> CNC[C@@H]1Oc2ncc(C#Cc3ccc(OC)c(OC)c3)cc2C(=O)N([C@H](C)CO)C[C@@H]1C
 : 4	5[16.7 µM]

Other entries
SMILES	UUG fidelity	HIV Env fusion
C[C@H]1CN([C@@H](C)CO)C(=O)Cc2cc(NS(=O)(=O)c3cccs3)ccc2O[C@H]1CN(C)S(=O)(=O)c1ccccc1	41	24[16.7 µM]
C[C@H](CO)N1C[C@H](C)[C@H](CN(C)C(=O)CN(C)C)Oc2ncc(C#C[C@@H](C)O)cc2C1=O	6	5[16.7 µM]
C[C@H](CO)N1C[C@H](C)[C@@H](CN(C)C(=O)C2CCCCC2)Oc2cc(-c3ccc(C(=O)N(C)C)cc3)ccc2S1(=O)=O	19	-59[16.7 µM]
COc1ccc(NC(=O)Nc2ccc3c(c2)C(=O)N([C@H](C)CO)C[C@@H](C)[C@H](CN(C)C(=O)C2CCCCC2)OCCCC[C@H](C)O3)cc1	-1	11[16.7 µM]
O=S(=O)(N[C@@H]1CC[C@H](CCn2cc(-c3cccc(F)c3)nn2)O[C@H]1CO)c1ccc(F)cc1	-16	6[16.7 µM]
Cc1noc(C)c1NC(=O)Nc1ccc2c(c1)C(=O)N([C@H](C)CO)C[C@@H](C)[C@@H](CN(C)S(=O)(=O)c1ccc(F)cc1)OCCCC[C@@H](C)O2	4	-3[16.7 µM]
C[C@@H]1CN([C@@H](C)CO)S(=O)(=O)c2ccc(C3=CCCCC3)cc2O[C@@H]1CN(C)Cc1ccccc1F	3	42[16.7 µM]
C[C@H](CO)N1C[C@H](C)[C@H](CN(C)Cc2cncnc2)Oc2cc(-c3ccccc3)ccc2S1(=O)=O	-4	22[16.7 µM]
C[C@H]1CN([C@@H](C)CO)S(=O)(=O)c2ccc(-c3ccccc3)cc2O[C@@H]1CN(C)C(=O)C1CC1	-8	1[16.7 µM]
O=C(C[C@@H]1C=C[C@@H](NC(=O)NC2CCCC2)[C@H](CO)O1)NCc1ccc(F)cc1	-7	-5[16.7 µM]
COc1ccc(S(=O)(=O)N(C)C[C@H]2OCCCC[C@@H](C)Oc3ccc(NS(C)(=O)=O)cc3C(=O)N([C@@H](C)CO)C[C@H]2C)cc1	4	18[16.7 µM]
C[C@H](CO)N1C[C@H](C)[C@H](CN(C)Cc2ccc3c(c2)OCO3)OCCCC[C@H](C)Oc2ccc(N(C)C)cc2C1=O	-4	-8&-30[16.7 µM]
COc1ccccc1-c1cnc2c(c1)C(=O)N([C@H](C)CO)C[C@H](C)[C@@H](CN(C)C(=O)CN(C)C)O2	9	9[16.7 µM]
C[C@H](CO)N1C[C@H](C)[C@H](CN(C)CC2CC2)Oc2cc(C#Cc3ccc(F)cc3)ccc2S1(=O)=O	8	-57[16.7 µM]
COc1ccc(S(=O)(=O)Nc2cccc3c2O[C@H](CN(C)C(=O)Nc2cccc4ccccc24)[C@H](C)CN([C@H](C)CO)C3=O)cc1	6	-8[16.7 µM]
CN(C)C(=O)C[C@H]1CC[C@@H]2[C@H](COC[C@H](O)CN2CC2CCCCC2)O1	-1	6[16.7 µM]

Ordered by molecular weight (lowest first): 3 of the compounds above
SMILES	UUG fidelity	HIV Env fusion
COc1ccccc1-c1cnc2c(c1)C(=O)N([C@H](C)CO)C[C@H](C)[C@@H](CN(C)C(=O)CN(C)C)O2	9	9[16.7 µM]
C[C@H](CO)N1C[C@H](C)[C@H](CN(C)CC2CC2)Oc2cc(C#Cc3ccc(F)cc3)ccc2S1(=O)=O	8	-57[16.7 µM]
COc1ccc(S(=O)(=O)Nc2cccc3c2O[C@H](CN(C)C(=O)Nc2cccc4ccccc24)[C@H](C)CN([C@H](C)CO)C3=O)cc1	6	-8[16.7 µM]

(continued)
SMILES	UUG fidelity	HIV Env fusion
COCC(=O)N(C)C[C@@H]1Oc2cc(C#CC(C)(C)O)ccc2S(=O)(=O)N([C@@H](C)CO)C[C@H]1C	4	-15[16.7 µM]
C[C@@H]1CN([C@@H](C)CO)C(=O)Cc2cc(NC(=O)Cc3ccccc3)ccc2O[C@@H]1CN(C)C(=O)Nc1cccc2ccccc12	13	-18[16.7 µM]
C[C@@H]1CCCCO[C@H](CN(C)C(=O)Cc2ccccc2)[C@@H](C)CN([C@@H](C)CO)C(=O)c2cc(NC(=O)Nc3ccccc3)ccc2O1	12	-52[16.7 µM]
C[C@H](O)C#Cc1ccc2c(c1)O[C@H](CN(C)C(=O)CC1CC1)[C@H](C)CN([C@H](C)CO)S2(=O)=O	5	-7[16.7 µM]
